HIV TAR-Tat: TAR RNA-Tat peptide displacers, HIV-1, primary screen, biochemical, FRET, FAM/TAMRA-labeled Tat; actives 0.6% (n = 100,000); HIV-1 TAR RNA, Tat peptide displacement FRET; stronger effect = higher value; z-score (no concentration beside the values);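 further: score is relative to mean and SD of negative controls; some compounds called inactive have numbers as strong as hits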
CDC25B-CDK2 inh: primary biochemical HTRF screen for blockers of M-phase inducer phosphatase 2 binding to CDK2/cyclin A. HTRF CDC25B-CDK2/CyclinA binding, anti-His/anti-Flag; stronger effect = higher value. z-score (test concentration not listed). actives 0.72% (n = 94,000);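 further: score is relative to mean and SD of negative controls; strong numbers were not always called active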
Active calls of the source: *; nt = no result given.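 How the source made its calls: active means z-score from 3 up in half or more of its runs; inactive means the rest.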 Outcome played no part in choosing rows, and some 0.94% of all compounds hit somewhere here.

SMILES | HIV TAR-Tat | CDC25B-CDK2 inh
O=C(NCc1csc(-c2cccs2)n1)[C@H]1CSCN1C(=O)c1ccc(F)cc1 | 1.3 | nt
Cc1nc2c3ccccc3n3c(CCCC(=O)NC4CCC(C)CC4)nnc3n2n1 (centres undefined) | nt | -0.66
C=CCNC(=O)C1CC(c2cc(OC)ccc2OC)=NO1 (centres undefined) | 1.2 | -0.78
CCOc1ccccc1C1C2=C(CCCC2=O)Nc2nc(SCc3ccccc3)nn21 (centres undefined) | 0.18 | 0.98
Cn1nc(C(=O)N2CCN(c3ccccn3)CC2)c2c1-c1ccccc1OC2 | 0.18 | -0.98
CCCOc1ccc(N2C(=O)CC(N3CCSCC3)C2=O)cc1 (centres undefined) | nt | 0.07
Cc1ccc2c(c1)-c1c(cnn1CC(=O)N(C(C)C)C1CCCCC1)CO2 | 0.44 | -3.1
CCOC(=O)C1=C(O)/C(=C\c2cccc(C(=O)OC)c2)N=C1C | nt | -2.4
Cn1nc(-c2ccc(/C=N/NC(=O)c3ccc(Cl)cc3Cl)s2)cc1C(F)(F)F | nt | 0.54
Cc1cc2c(cc3c(SCC(=O)Nc4ccc(C)c(F)c4)nnc(C)n32)o1 | 2.3 | nt
O=C(c1c[nH]c2ccc(F)cc2c1=O)N1CCSCC1 | 0.39 | -1.2
CC1(C)CC(=O)C2=C(C1)N=C1c3ccccc3C(=O)C1C2c1cccc(Br)c1 (centres undefined) | -0.61 | -0.08
CC(CN(CCS(=O)(=O)N1CCNCC1)S(=O)(=O)c1ccc(Cl)cc1)c1ccccc1 (centres undefined) | -0.81 | nt
O=C(Nc1ccc(F)cc1)c1c(O)c2cccc3c2n(c1=O)CC3 | 1.3 | nt
COc1ccc(NS(=O)(=O)c2c(C)nc3scc(C)n3c2=O)cc1 | 2 | -0.05
CSc1ccc(-c2noc(CCCn3c(=O)[nH]c4cc5c(cc4c3=O)OCO5)n2)cc1 | -0.27 | nt
O=C(c1ccc2c(c1)OCO2)N(CC1CCCO1)C1(C(=O)NC2CCCCC2)CCCCC1 (centres undefined) | nt | -0.53
Fc1ccccc1CN1CCc2c(Br)cccc2C1 | -0.47 | 0.26
CS(=O)(=N/C=C(\C#N)C(=O)c1cccs1)c1ccc(OC(=O)c2ccc(Cl)cc2)cc1 (centres undefined) | nt | 0.7
CCCNC(=O)CN(C)c1nn2c(=O)cc(C)nc2s1 | -0.55 | -1.6
CCc1ccc(S(=O)(=O)N2CCC(c3ccncc3)CC2)cc1 | 0.67 | nt
CCC(C)N[C@H]1CS(=O)(=O)C[C@@H]1S(=O)(=O)c1ccc(NC(C)=O)cc1 (some centres undefined) | 0.36 | -1.1
COc1ccc(C2Oc3ccccc3C3=C2C(c2ccccc2)n2ncnc2N3)cc1 (centres undefined) | 0.7 | -0.84
O=C(NCCc1cccs1)C1CCCN(c2nnc(-n3cccc3)s2)C1 (centres undefined) | 0.92 | nt
Cc1ccc(-c2onc(C)c2C)cc1S(=O)(=O)Nc1cccc(Cl)c1C | 0.51 | nt
Nc1nc2c(cnn2CCc2ccccc2)c2nc(-c3ccco3)nn12 | nt | -2.2
Cc1ccc(Cl)cc1NS(=O)(=O)c1c(C)nc2sccn2c1=O | -1.1 | nt
O=C1CSc2ccc(S(=O)(=O)N3CCOCC3)cc2N1Cc1ccc(F)cc1 | -0.34 | nt
Cc1cccc(C(=O)Nc2c(C)nc3c(C)cccn3c2=O)c1 | 0.99 | nt
Cc1noc(/C=C/N(C)C)c1S(=O)(=O)N1CCCC(C(=O)NCc2ccco2)C1 (centres undefined) | nt | -0.65
COc1cccc(NC(=O)CSc2ncc3c(n2)-c2ccccc2N(C)S3(=O)=O)c1 | -1.1 | nt
CCc1ccc(-c2nc3c(c(=O)[nH]2)Cc2cc(C)ccc2O3)cc1 | 0.42 | -1.3
O=C(c1cccc(NC2=NC3CS(=O)(=O)CC3S2)c1)N1CCN(C(=O)c2ccco2)CC1 (centres undefined) | 2.2 | -0.43
O=C(NC(=O)c1ccc(F)cc1F)Nc1ccccc1 | nt | -1.1
COc1ccc(-c2onc(C)c2C)cc1S(=O)(=O)Nc1ccc(-c2ccno2)cc1 | 2.5 | nt
Cc1nc(C)c(C(=O)NNC(=O)Nc2ccc(Cl)cc2)s1 | nt | -1.2
COc1ccc(Sc2nnc(C)c3nnn(Cc4ccc(F)cc4)c23)cc1 | 0.34 | -2.5
COC(=O)c1nnn(-c2ccccc2)c1C(=O)OC | -0.43 | -3
O=C1c2cccnc2C(=O)N1Cc1ccc(F)cc1S(=O)(=O)NCc1ccccc1 | -1 | nt
Cn1c(=O)c2c(nc(Oc3ccccc3)n2C)n(C)c1=O | nt | -0.71
COc1ccc(NC(=O)CSc2nc3nccnc3c(=O)n2CC2CCCO2)cc1Cl (centres undefined) | 2.1 | -1.5
Cc1cc(C)cc(CC(C(=O)O)C(C)C(=O)O)c1 (centres undefined) | 0.18 | 0.34
Cc1cc(NC2CCCCC2)nc(NCc2ccccc2)n1 | nt | 0.53
Cc1ccc(CN2CCC(CNC(=O)Nc3ccc4c(c3)OCCO4)C2)cc1 (centres undefined) | 0.83 | -2.2
O=C(c1ccccc1NC(=O)C(Cl)(Cl)Cl)N1CCSCC1 | nt | -0.62
O=C(Nc1cccnc1)c1[nH]nc2c1CCc1ccccc1-2 | -0.57 | nt
CCN(Cc1cc(=O)n2nc(C3CC3)sc2n1)c1cccc(C)c1 | -0.26 | nt
CCc1nnc2c(Nc3ccc(OC)cc3)nc3ccccc3n12 | 2 | -2.3
O=C1OC(=O)C2C3CCC(O3)C12 (centres undefined) | 0.39 | -0.94
CC(O)CN(CC(C)O)c1ncnc2c1sc1nc3c(cc12)COC(C)(C)C3 (centres undefined) | -0.48 | nt
O=c1cc(CO)occ1O | 0.23 | nt
O=c1nc2sc3ccccc3n2c(=O)n1-c1ccccc1 | nt | -1.3
CS(=O)(=O)c1ccc2nc(NC(=O)c3cc(=O)c4cc(Cl)ccc4o3)sc2c1 | -0.29 | -1.5
O=C(NCc1ccccn1)C1CCN(c2ccccc2)C1=O (centres undefined) | -0.98 | nt
COc1cc(C2CC(=O)Nc3c2cnn3-c2nc3ccccc3s2)ccc1O (centres undefined) | 2.3 | nt
CCn1c2ccccc2c2cc(CN3CCC(N4CCN(CCO)CC4)CC3)ccc21 | -0.33 | -0.54

The results go on.
SMILES | HIV TAR-Tat | CDC25B-CDK2 inh
COc1cc(Cl)c(C(F)(F)F)cc1NC(C)=O | nt | -1.6
NC(=O)c1nc(-c2cc(F)ccc2F)nc2c1[nH]c(=O)n2-c1ccc(F)cc1 | 1.2 | nt
O=C(c1cnn2cc(Br)cnc12)N1CCCC1c1ccccc1F (centres undefined) | 1.6 | 0.63
CNC(=O)c1oc2c(c1C)C1N=C(C)SC1CC2 (centres undefined) | 2 | nt
COc1ccc(NS(=O)(=O)c2ccc3c(c2)OCC(C(=O)N2CCOCC2)O3)c(OC)c1 (centres undefined) | 1.3 | nt
CCOC(=O)c1c(C)n(CC)c2ccc(OC(=O)COc3ccc(Cl)cc3)cc12 | nt | -1.8
Cc1nnc2sc(SCc3cccc4ccccc34)nn2c1=O | 1.8 | nt
COc1ccc(C2NC(=O)c3[nH]nc(-c4ccc(C)cc4)c32)cc1 (centres undefined) | -0.73 | nt
Cc1nc2nc(SCc3cc(=O)n4c(C)cccc4n3)nn2c(C)c1Cc1ccc(F)cc1Cl | -0.01 | nt
CCOc1ccc(N2CC(O)=C(c3nc4ccccc4n3C)C2=N)cc1 | 0.87 | -0.97
O=C(NCc1ccco1)c1nnc(Cc2ccc3c(c2)OCO3)o1 | -0.51 | -0.21
CCN1CCCC1CNC(=O)Cn1ncc2c3ccccc3n(Cc3c(C)cc(C)cc3C)c2c1=O (centres undefined) | 0 | -0.45
COc1ccc(NC(=O)C2CCC(CNc3c(N4CCCC4)c(=O)c3=O)CC2)cc1Cl (centres undefined) | nt | -0.91
Cc1nn(-c2nc3ccccc3n2C)c2c1C(c1cccc(F)c1F)CC(=O)N2 (centres undefined) | 2.1 | nt
Cc1ccc2oc(SCC(=O)NC(C)(C)C)nc2n1 | 2.6 | nt
COCCNC(=O)CCCc1nnc2n(C)c(=O)c3sccc3n12 | -0.94 | nt
Cc1ccc(C)n1-c1nnc(N2CCC(C(=O)N3CCN(C4CCCCC4)CC3)CC2)s1 | 0.94 | 0.44
COCCNc1cc(N2CCCCC2)c2noc3c2c1C(=O)c1ccccc1-3 | 8.1* | 1.7
Cc1onc(-c2ccccc2)c1NC(=O)Nc1ccccc1N1CCOCC1 | nt | -1.6
O=C(Nc1cccc2ccccc12)c1cnc2sccn2c1=O | nt | -2.2
c1ccc(-c2cnn3cc(-c4ccc(OCCN5CCOCC5)cc4)cnc23)cc1 | nt | -0.27
O=C(NC1CC1)c1ccc(CSc2nc3ccncc3n2Cc2ccc(F)cc2)cc1 | -0.86 | -0.47
O=c1[nH]c(NCc2ccccc2)nc2sc3c(c12)CCCC3 | 0.66 | -1.6
CCCCN1C(SCC(=O)Nc2ccc3c(c2)OCO3)=NS(=O)(=O)c2ccccc21 | -0.87 | nt

Next section (2 carried over from the part before).
SMILES | HIV TAR-Tat | CDC25B-CDK2 inh
O=c1[nH]c(NCc2ccccc2)nc2sc3c(c12)CCCC3 | 0.66 | -1.6
CCCCN1C(SCC(=O)Nc2ccc3c(c2)OCO3)=NS(=O)(=O)c2ccccc21 | -0.87 | nt
Cc1ccccc1-c1nc2c3c(C)c(C)n(CCCN4CCOCC4)c3ncn2n1 | 0.72 | -1.2
Cc1ccc(-c2csc3ncn(C(C)c4ccccc4)c(=O)c23)cc1 (centres undefined) | 1.6 | 2
Cc1nc(SCc2cc(=O)n3oc(C)cc3n2)n[nH]1 | 0.37 | nt
Cc1cc(C)cc(C(=O)Nc2c3c(nn2C(C)(C)C)CS(=O)(=O)C3)c1 | 0.25 | nt
Cc1cc(F)ccc1NS(=O)(=O)c1cc2[nH]c(=O)c(=O)[nH]c2cc1C | 1.1 | nt
O=C(Cn1c2ccccc2c2nc3ccccc3nc21)OCc1ccccc1 | 0.99 | -0.16
CCc1ccc(C2=NN(C(=O)CCCC(=O)O)C(c3ccc(Cl)cc3)C2)cc1 (centres undefined) | 0.24 | 2.6
CCN(CCCCCCN)c1ccc2c(=O)[nH][nH]c(=O)c2c1 | 1.7 | -2.7

Some of the entries so far, with values under each structure.
Fields: HIV TAR-Tat | CDC25B-CDK2 inh
O=C(Cn1c2ccccc2c2nc3ccccc3nc21)OCc1ccccc1
→ 0.99 | -0.16
Cc1ccc(-c2csc3ncn(C(C)c4ccccc4)c(=O)c23)cc1 (centres undefined)
→ 1.6 | 2

The list continues:
SMILES | HIV TAR-Tat | CDC25B-CDK2 inh
COc1ccc(OS(=O)(=O)c2ccc(-c3cc(C(F)(F)F)on3)s2)cc1 | nt | -0.29
COc1ccc(-c2csnn2)cc1S(=O)(=O)n1nc(C)cc1C | nt | 0.25
CC(C)Cn1c(C2CC(=O)N(Cc3ccccc3)C2)nc2ccccc21 (centres undefined) | 0.83 | -0.79
NS(=O)(=O)c1nn2cc(-c3ccccc3)nc2s1 | nt | 0.99
O=C(OCc1cc(=O)n2ccsc2n1)C1CCCCC1 | 0.74 | nt
COC(=O)CN1C(=O)c2cccnc2Oc2ccc(Cl)cc21 | 3.4 | -1.4
c1ccc(Cc2c[nH]c3ccccc23)cc1 | -0.75 | 0.23
CC(C)CCn1c(=O)c2sccc2n2c(CCCC(=O)N3CCC(N4CCCCC4)CC3)nnc12 | -0.05 | nt
COc1ccc2c(c1)c1c(c(=O)n(-c3ccccc3)c(=O)n1C)n2C | 1.6 | nt
CC1Sc2ccc(S(=O)(=O)CCC(=O)NC3CCCC(C)C3C)cc2NC1=O (centres undefined) | 1.9 | nt
O=C(c1ccccc1)N1CCN(C(=O)c2cccs2)CC1 | nt | -1.4
CC1CSc2ccc(S(=O)(=O)NCCCN3CCc4ccccc4C3)cc2NC1=O (centres undefined) | 0.18 | nt
COc1ccc(C2N(c3cc(Cl)ccc3OC)C(=O)C3CCCN32)c(OC)c1 (centres undefined) | 0.78 | -0.51
COc1ccc(C(=O)CSc2ncn[nH]2)cc1OC | 0.17 | -2.5
COc1ccccc1C1=NS(=O)(=O)N(C)C(C(=O)Nc2sc3c(c2C#N)CCC3)=C1 | 0.85 | -2
C=CCSc1nc2c(cc1C#N)C(=O)CCC2 | -0.18 | -1.4
O=C(COC(=O)c1cc(=O)[nH]c2ccccc12)c1ccc(Oc2c(Cl)cccc2[N+](=O)[O-])cc1 | nt | -1.3
O=C(NNC(=O)c1cc(OCC(F)(F)F)ccc1OCC(F)(F)F)c1cccs1 | nt | -1.6
CCOCCn1c2ccccc2c2nc3ccccc3nc21 | 0.24 | -1.1
O=C1CCCc2cc(S(=O)(=O)N3CCN(C4CCCCC4)CC3)ccc2N1 | 0.91 | nt
COc1cccc(CNCCSc2nnnn2C)c1OCc1ccccc1Cl | 2.5 | -0.56
Cc1csc(NC(=O)CSc2nnc3[nH]c(=O)cc(C)n23)n1 | 1 | nt
Cc1cc(-c2ccc(=O)[nH]n2)cc(S(=O)(=O)N2c3ccccc3CC2C)c1C (centres undefined) | -0.47 | nt
COc1ccc(C2/C(=C(\O)c3ccc(C)cc3)C(=O)C(=O)N2CCCN(C)C)cc1 (centres undefined) | 1.6 | -0.26

4 entries out of the list, sorted by number of heavy atoms, largest number first.
SMILES | HIV TAR-Tat | CDC25B-CDK2 inh
COc1ccc(C2/C(=C(\O)c3ccc(C)cc3)C(=O)C(=O)N2CCCN(C)C)cc1 (centres undefined) | 1.6 | -0.26
COc1cccc(CNCCSc2nnnn2C)c1OCc1ccccc1Cl | 2.5 | -0.56
O=C1CCCc2cc(S(=O)(=O)N3CCN(C4CCCCC4)CC3)ccc2N1 | 0.91 | nt
CCOCCn1c2ccccc2c2nc3ccccc3nc21 | 0.24 | -1.1

Screens from PubChem.
